rRNA inh HTS – inhibits bacterial ribosomal RNA function over humanized ribosomes; E. coli WT GFP vs humanized-ribosome RFP mutants, fluorescence, 24 h; active compounds read low; DMSO median 0, no signal -100; GFP signal change (wild-type ribosome), % (test concentration not listed); 1.6% of 350,000 active;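 active means significant combined selectivity score with lowered wild-type GFP, culture density cut under 30%, mutant RFP and density less affected; inactive means any of these conditions unmet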; further: one replicate is shown; some compounds called inactive have numbers as strong as hits
FGF22 binding – shifts melting point of recombinant human FGF22; 1.5% of 340,000 active; recombinant FGF22 thermal shift, SYPRO orange fluorescence; percent of sucrose octasulfate shift, DMSO zero; calls only at 9.99 µM;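 active means melting point raised past a set limit in the mean and every replicate; three in four hits are not shown here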
Target sequence (Q9HCT0 whole entry, looked up): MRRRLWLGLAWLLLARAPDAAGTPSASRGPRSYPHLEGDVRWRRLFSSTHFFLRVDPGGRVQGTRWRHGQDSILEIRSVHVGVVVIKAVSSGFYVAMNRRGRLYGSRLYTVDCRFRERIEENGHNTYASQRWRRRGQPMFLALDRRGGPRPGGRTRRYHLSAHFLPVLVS
rRNA inh HTS OD600 – further read-out of rRNA inh HTS, marked with its call; OD600 change, %; measured here: OD600 growth;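 optical density of the mix in the first replicate; 0 = DMSO median and -100 = no signal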
rRNA inh HTS RFP – recorded beside rRNA inh HTS, whose call it bears; RFP signal change, %; measured here: RFP humanized mutant strains;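 first replicate; 0 = DMSO median and -100 = no signal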
Active calls of the source: *; i = inactive; & = joins results of further samples.

SMILES	rRNA inh HTS	rRNA inh HTS OD600	rRNA inh HTS RFP	FGF22 binding
COc1ccccc1C(=O)N1C[C@@H]2[C@H](c3ccccc31)[C@H](CO)N2C(=O)C1CC1	-0.6	-1.0	0.5	i
CCC(=O)N(C)C[C@H]1Oc2ncc(Br)cc2C(=O)N([C@@H](C)CO)C[C@@H]1C	4.4	3.6	-0.7	i
C/C=C/c1ccc([C@@H]2[C@H]3CN(C(=O)Nc4ccccc4F)CC(=O)N3[C@H]2CO)cc1	-3.4	-2.5	-2.4	i
C[C@@H](NC(=O)C[C@@H]1C=C[C@H](NC(=O)C2CCC2)[C@H](CO)O1)c1ccccc1	0.0	4.2	-2.0	i
C[C@@H]1CCCCO[C@@H](CN(C)Cc2ccccc2)[C@@H](C)CN([C@@H](C)CO)C(=O)c2cc(NC(=O)Nc3ccccc3)ccc2O1	0.8	-17.0	6.4	i
C[C@@H]1CN([C@H](C)CO)C(=O)c2cc(NC(=O)C3CCCCC3)ccc2O[C@H]1CN(C)Cc1ccc(C(F)(F)F)cc1	-2.8	-11.6	0.6	i
COc1cccc(S(=O)(=O)N2CCCCN3[C@@H](CO)[C@@H](c4ccc(C#CC5CC5)cc4)[C@@H]3C2)c1	-60.1	-73.5	-13.3	i
C[C@H](CO)N1C[C@H](C)[C@H](CN(C)S(=O)(=O)c2cn(C)cn2)OCc2ccccc2-c2ccccc2C1=O	-0.4	6.4	0.9	i
C[C@@H]1CN([C@@H](C)CO)C(=O)c2cc(NC(=O)CCCN(C)C)ccc2O[C@H]1CN(C)CC1CCCCC1	1.9	5.3	-2.9	i
CCCNC(=O)Nc1ccc2c(c1)OC[C@@H](C)N(CCC(F)(F)F)C[C@H](C)[C@@H](OC)CN(C)C2=O	-5.1	-6.5	0.6	i
Cc1noc(C)c1S(=O)(=O)N(C)C[C@@H]1OCCCC[C@H](C)Oc2ccc(NC(=O)Nc3ccc4c(c3)OCO4)cc2C(=O)N([C@H](C)CO)C[C@H]1C	4.6	-3.9	-3.2	i
C[C@@H]1CN([C@@H](C)CO)C(=O)CCCn2cc(nn2)CO[C@@H]1CN(C)S(=O)(=O)c1ccc(F)cc1	-1.0	0.5	1.1	i
C[C@@H]1CN([C@@H](C)CO)S(=O)(=O)c2ccc(C3=CCCCC3)cc2O[C@@H]1CN(C)C(=O)CN(C)C	6.3	1.0	0.7	i
O=C(C[C@H]1CC[C@H]2[C@@H](COC[C@@H](O)CN2C(=O)Nc2cc(Cl)cc(Cl)c2)O1)NCC1CCCCC1	-12.5	-19.1	17.8	i
C[C@@H](NC(=O)[C@@H]1[C@@H](CO)[C@@H]2Cn3c(cccc3=O)[C@@H]2N1CCC(F)(F)F)c1ccccc1	-1.1	14.8	1.0	i
COc1ccc(-c2cnc3c(c2)C(=O)N([C@@H](C)CO)C[C@@H](C)[C@@H](CN(C)C(=O)Cc2ccncc2)O3)cc1	2.0	6.8	-1.3	i
CO[C@H]1CN(C)C(=O)c2ccc(NC(=O)Nc3c(C)noc3C)cc2OC[C@H](C)N(CCC(F)(F)F)C[C@H]1C	1.8	-0.9	-1.7	i
O=C(C[C@@H]1CC[C@H]2[C@@H](COC[C@H](O)CN2Cc2nccs2)O1)NCc1ccccc1	0.8	10.0	-2.5	i
C[C@@H]1CN([C@H](C)CO)C(=O)c2cc(NC(=O)Nc3cccc4ccccc34)ccc2O[C@H]1CN(C)C(=O)Nc1ccc(C(F)(F)F)cc1	-2.4	-0.1	0.1	i
CCCNC(=O)Nc1ccc2c(c1)C(=O)N(C)C[C@H](OC)[C@@H](C)CN(C(=O)C1CC1)[C@@H](C)CO2	0.7	0.1	-1.2	i

Single records, from the list above. Order of values: rRNA inh HTS | rRNA inh HTS OD600 | rRNA inh HTS RFP | FGF22 binding
Cc1noc(C)c1S(=O)(=O)N(C)C[C@@H]1OCCCC[C@H](C)Oc2ccc(NC(=O)Nc3ccc4c(c3)OCO4)cc2C(=O)N([C@H](C)CO)C[C@H]1C is listed as 4.6 | -3.9 | -3.2 | i
COc1ccc(-c2cnc3c(c2)C(=O)N([C@@H](C)CO)C[C@@H](C)[C@@H](CN(C)C(=O)Cc2ccncc2)O3)cc1 is listed as 2.0 | 6.8 | -1.3 | i
C[C@@H]1CN([C@@H](C)CO)S(=O)(=O)c2ccc(C3=CCCCC3)cc2O[C@@H]1CN(C)C(=O)CN(C)C is listed as 6.3 | 1.0 | 0.7 | i
C[C@@H]1CN([C@H](C)CO)C(=O)c2cc(NC(=O)Nc3cccc4ccccc34)ccc2O[C@H]1CN(C)C(=O)Nc1ccc(C(F)(F)F)cc1 is listed as -2.4 | -0.1 | 0.1 | i
CCCNC(=O)Nc1ccc2c(c1)C(=O)N(C)C[C@H](OC)[C@@H](C)CN(C(=O)C1CC1)[C@@H](C)CO2 is listed as 0.7 | 0.1 | -1.2 | i

Additional structures:
SMILES	rRNA inh HTS	rRNA inh HTS OD600	rRNA inh HTS RFP	FGF22 binding
C[C@H]1CN([C@@H](C)CO)C(=O)c2cc(NC(=O)Cn3cnnn3)ccc2O[C@H]1CN(C)Cc1ccccc1	-0.9	6.1	-2.3	i
C[C@H](CO)N1C[C@H](C)[C@H](CN(C)CC2CCCCC2)Oc2ccc(NS(=O)(=O)c3cn(C)cn3)cc2C1=O	0.1	2.6	-2.3	i
C[C@H]1CN([C@@H](C)CO)C(=O)c2cc(C#CCN(C)C)cnc2O[C@@H]1CN(C)C(=O)Nc1cccc(F)c1	3.5	7.5	1.5	i
O=C(C1CC1)N1CCCCN2[C@H](CO)[C@H](c3ccc(C#CC4CCCC4)cc3)[C@H]2C1	-58.9	-74.2	-10.3	i
CC(C)CC#Cc1cnc2c(c1)C(=O)N([C@@H](C)CO)C[C@H](C)[C@@H](CN(C)Cc1cncnc1)O2	2.4	-1.9	-1.5	i
COc1cccc(-c2cnc3c(c2)C(=O)N([C@H](C)CO)C[C@H](C)[C@H](CN(C)C(C)=O)O3)c1	-5.5	-0.9	0.8	i
C[C@@H]1CN([C@H](C)CO)C(=O)Cc2cc(NC(=O)CCCN(C)C)ccc2O[C@H]1CN(C)Cc1ccc(Oc2ccccc2)cc1	-55.9	-76.5	-14.9	i
CCCNC(=O)C[C@@H]1CC[C@H]2[C@@H](COc3ccc(NC(=O)COC)cc3C(=O)N2C)O1	1.6	0.4	-4.4	i
CN(C)CC#Cc1ccc([C@@H]2[C@H](C#N)N[C@@H]2CO)cc1	5.4	15.9	2.1	i
C/C=C/c1ccc([C@@H]2[C@@H](CN(CC)C(C)=O)N(S(C)(=O)=O)[C@H]2CO)cc1	2.6	2.4	-1.9	i
Cc1ccc(-c2ccc([C@H]3[C@@H](CO)N4CCCCN(Cc5cncnc5)C[C@H]34)cc2)cc1	0.8	7.1	5.5	i
CCCN(C)C[C@@H]1Oc2ncc(/C=C/c3ccccc3)cc2C(=O)N([C@H](C)CO)C[C@@H]1C	5.5	4.8	-0.4	i
COc1ccc(NC(=O)N(C)C[C@H]2Oc3cc(C#CCN(C)C)ccc3S(=O)(=O)N([C@@H](C)CO)C[C@@H]2C)cc1	0.3	2.4	-0.9	i
CC(=O)N(C)C[C@H]1Oc2cc(Br)ccc2S(=O)(=O)N([C@@H](C)CO)C[C@H]1C	3.7	3.6	1.3	i
C[C@@H]1CN([C@H](C)CO)C(=O)c2cc(NC(=O)C3CCCCC3)ccc2O[C@@H]1CN(C)C	2.6	6.6	-0.9	i
CN1C(=O)c2cc(NC(=O)c3ccc(F)c(F)c3)ccc2OC[C@H]2O[C@@H](CC(=O)N[C@@H]3CCN(Cc4ccccc4)C3)CC[C@@H]21	-5.3	2.4	13.0	i
CC(C)CC#Cc1ccc2c(c1)O[C@H](CN(C)C(=O)Cc1ccccn1)[C@@H](C)CN([C@@H](C)CO)S2(=O)=O	1.9	-1.8	2.8	i
CN1CCN(C(=O)C[C@@H]2CC[C@H]3[C@@H](COC[C@H](O)CN3C(=O)c3ccccc3F)O2)CC1	2.3	12.2	5.5	i
COc1ccccc1S(=O)(=O)N(C)C[C@H]1Oc2cc(/C=C/c3ccccc3)ccc2S(=O)(=O)N([C@H](C)CO)C[C@@H]1C	4.4	11.1	-0.5	i
CCCC#Cc1ccc2c(c1)O[C@@H](CN(C)C(=O)CN(C)C)[C@@H](C)CN([C@@H](C)CO)S2(=O)=O	-3.0	2.8	-0.5	i
COc1ccccc1NC(=O)N1CCCCN2[C@H](CO)[C@H](c3ccc(C#CC4CCCC4)cc3)[C@@H]2C1	3.7	-7.0	0.6	i
COc1ccccc1NC(=O)N1CCCCN2[C@H](CO)[C@H](c3ccc(-c4cccc(F)c4)cc3)[C@@H]2C1	-3.3	-6.8	15.6	i
C[C@@H]1CN([C@@H](C)CO)C(=O)c2cccc(NS(=O)(=O)c3cn(C)cn3)c2O[C@@H]1CN(C)C(=O)Nc1ccccc1	4.7	-4.9	-5.5	i
Cc1noc(C)c1NC(=O)Nc1ccc2c(c1)C(=O)N([C@@H](C)CO)C[C@H](C)[C@@H](CN(C)S(=O)(=O)c1ccc(Cl)cc1)OCCCC[C@@H](C)O2	-1.5	-8.6	1.1	i
COc1ccccc1-c1ccc([C@H]2[C@@H](CO)N3CCCCN(C(=O)CN4CCOCC4)C[C@@H]23)cc1	0.6	0.0	-0.5	i
Cc1ccccc1S(=O)(=O)N1CC[C@@H]2[C@@H](CO)N(C)c3ccc(-c4ccccc4)cc3[C@@H]21	0.6	9.5	-2.7	i
O=C(c1ccccn1)N1CC[C@H]2[C@H](CO)Nc3ccc(-c4ccc(F)cc4)cc3[C@H]21	-5.0	-9.9	5.3	i
COc1ccc(-c2ccc(C3[C@@H]4CN(C(=O)c5ccc(F)cc5)C[C@H]3N4)cc2)cc1 (stereo partly drawn)	-15.2&-8.3	-48.8&-6.2	8.6&2.6	i
C[C@@H]1CN([C@H](C)CO)C(=O)c2cc(NC(=O)Cc3cn(C)c4ccccc34)ccc2O[C@@H]1CN(C)Cc1ccc2c(c1)OCO2	0.3	-2.6	0.0	i
O=C(Nc1ccccc1Cl)N1C[C@@H]2[C@H](c3ccccc31)[C@H](CO)N2Cc1ccccc1	-7.8	-9.9	-1.1	i
C[C@@H]1CCCCO[C@H](CN(C)C(=O)Nc2ccc3c(c2)OCO3)[C@@H](C)CN([C@H](C)CO)C(=O)c2cc(N(C)C)ccc2O1	2.3	0.6	-0.7	i
CC(C)NC(=O)N(C)C[C@@H]1Oc2cc(-c3cncnc3)ccc2S(=O)(=O)N([C@@H](C)CO)C[C@H]1C	5.2	3.0	-3.3	i
O=C(NC[C@H]1N[C@H](CO)[C@@H]1c1ccc(C2=CCCCC2)cc1)c1ccc(F)cc1	-60.8	-79.3	-18.6	i
CO[C@H]1CN(C)C(=O)c2cc(NS(C)(=O)=O)ccc2OC[C@@H](C)N(Cc2nccs2)C[C@@H]1C	-1.4	-4.5	0.9	i
COC(=O)c1ccc2nc(-c3cccc(Cl)c3)c(Cc3ccccc3C(F)(F)F)n2c1	18.5	11.4	2.7	i
COc1ccc(NC(=O)Nc2ccc3c(c2)C(=O)N([C@@H](C)CO)C[C@H](C)[C@H](CN(C)C(=O)Nc2ccc(C(F)(F)F)cc2)O3)cc1	-0.3	-4.6	-1.5	i
COc1ccc(S(=O)(=O)N[C@H]2C=C[C@@H](CC(=O)N3CCc4ccccc4C3)O[C@@H]2CO)cc1	-2.6	-3.6	0.5	i
Cc1noc(C)c1S(=O)(=O)Nc1ccc2c(c1)C(=O)N([C@@H](C)CO)C[C@H](C)[C@@H](CN(C)Cc1ccc3c(c1)OCO3)O2	-1.2	1.2	-1.8	i
O=S(=O)(N[C@H]1CC[C@H](CCn2cc(C3(O)CCCC3)nn2)O[C@H]1CO)c1ccc(F)cc1	-2.5	-3.6	-3.7	i
COc1ccc(C#Cc2cnc3c(c2)C(=O)N([C@H](C)CO)C[C@H](C)[C@H](CN(C)S(=O)(=O)c2ccc(C#N)cc2)O3)cc1OC	-3.4	-1.9	0.7	i
CCCNC(=O)N(C)C[C@H]1Oc2ncc(-c3ccncc3)cc2C(=O)N([C@H](C)CO)C[C@H]1C	-2.9	4.4	-1.6	i
C[C@@H]1CN([C@H](C)CO)S(=O)(=O)c2ccc(C3=CCCC3)cc2O[C@H]1CN(C)Cc1ccccn1	-33.0	-54.9	12.6	i
Cc1ccccc1-c1ccc2c(c1)O[C@H](CN(C)Cc1ccc(C(=O)O)cc1)[C@H](C)CN([C@H](C)CO)S2(=O)=O	-2.5	0.8	-0.3	i
COCC#Cc1cnc2c(c1)C(=O)N([C@H](C)CO)C[C@H](C)[C@H](CN(C)C(=O)C1CCCCC1)O2	2.2	3.9	-2.1	i
CC(C)C#Cc1ccc([C@@H]2[C@@H](CO)N3C(=O)CN(C(=O)NC4CCCC4)C[C@@H]23)cc1	3.8	4.8	4.3	i
CO[C@@H]1CN(C)C(=O)c2cc(NC(=O)c3nc4ccccc4s3)ccc2OC[C@@H](C)N(Cc2ccccc2)C[C@H]1C	0.0&-0.6	2.1&3.5	-0.1&0.3	i
CN1C(=O)c2cc(NC(=O)c3ccc(F)c(F)c3)ccc2OC[C@H]2O[C@@H](CC(=O)N3CCCCC3)CC[C@@H]21	-10.2	-7.2	-1.2	i
O=C(C[C@H]1CC[C@H]2[C@@H](COC[C@@H](O)CN2Cc2ccccc2)O1)N1CCOCC1	3.3	7.2	-3.5	i
Cc1noc(C)c1NC(=O)N[C@@H]1CC[C@H](CCNC(=O)C2CCC2)O[C@H]1CO	3.4	6.2	-2.1	i
O=C(C[C@H]1CC[C@H](NC(=O)Nc2ccc(C(F)(F)F)cc2)[C@@H](CO)O1)NCc1cccc(F)c1	-5.6	-9.1	0.5	i
CC(C)C#Cc1ccc2c(c1)O[C@@H](CN(C)CC1CCCC1)[C@H](C)CN([C@H](C)CO)S2(=O)=O	-1.1	-0.6	-2.8	i

Bioassay records: PubChem BioAssay, Broad Institute

Not all compounds are listed. The share of hits here may be higher or lower than overall.
